Source: PubChem BioAssay (ICCB-Longwood Screening Facility, Harvard Medical School)
Polio RdRp inh – poliovirus RNA polymerase inhibition. P03300. poliovirus polymerase elongation, fluorescence polarization; hits give low values. 150,000 tested, 0.66% active. % elongation, % (compound at 16.7 µg/mL); in the data active means % elongation below about 90%; further: some results filed as inactive read as strong as hits
MbtI inh – blocks the Mycobacterium tuberculosis siderophore enzyme MbtI | P9WFX0 | purified MbtI enzyme, fluorescence intensity read-out | inhibition, %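 (about 17 µg/mL by stock and volumes)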 | 100,000 tested, 0.89% active;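 active means above 50% in both replicates, above 80% if mildly self-fluorescent; inactive means the rest, strongly fluorescent compounds included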;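 further: 0% = mean of negative and 100% = mean of positive controls; one replicate is shown; some compounds called inactive have numbers as strong as hits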
Target sequence (P9WFX0 whole entry, looked up): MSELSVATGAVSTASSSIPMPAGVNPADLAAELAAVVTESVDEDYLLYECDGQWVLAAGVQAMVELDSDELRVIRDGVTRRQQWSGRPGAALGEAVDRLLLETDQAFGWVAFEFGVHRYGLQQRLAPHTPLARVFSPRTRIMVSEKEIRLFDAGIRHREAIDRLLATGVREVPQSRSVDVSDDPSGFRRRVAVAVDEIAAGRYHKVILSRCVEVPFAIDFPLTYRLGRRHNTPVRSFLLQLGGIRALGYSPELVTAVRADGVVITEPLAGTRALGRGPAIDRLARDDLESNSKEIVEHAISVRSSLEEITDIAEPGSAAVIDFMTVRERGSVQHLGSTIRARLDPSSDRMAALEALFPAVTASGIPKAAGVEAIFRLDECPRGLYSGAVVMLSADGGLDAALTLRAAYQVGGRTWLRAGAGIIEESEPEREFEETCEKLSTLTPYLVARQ
MenB inh – Mtb MenB enzyme inhibition; inhibition, %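 (about 12 µg/mL by stock and volumes)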; MenB enzyme assay, absorbance read-out; some hits fall short of the stated cut; 100,000 tested, 0.43% active;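 active means mean of two replicates above 30%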;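 further: 0% = no compound and 100% = wells with inactive enzyme; the first replicate is given; strong numbers were not always called active; inactives centre near -10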
Target sequence (P9WNP5 whole entry, looked up): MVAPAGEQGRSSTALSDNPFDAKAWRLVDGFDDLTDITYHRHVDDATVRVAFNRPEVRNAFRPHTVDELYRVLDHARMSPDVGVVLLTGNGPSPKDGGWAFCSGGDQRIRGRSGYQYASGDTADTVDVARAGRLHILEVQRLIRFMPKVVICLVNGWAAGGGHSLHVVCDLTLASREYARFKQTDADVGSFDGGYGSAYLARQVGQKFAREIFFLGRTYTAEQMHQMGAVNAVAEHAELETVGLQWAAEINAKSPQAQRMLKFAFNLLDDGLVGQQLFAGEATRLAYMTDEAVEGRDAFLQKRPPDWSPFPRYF
Polio RdRp inh intensity – recorded beside Polio RdRp inh, whose call it bears; % elongation; measured here: total intensity read-out; formula for this scale not given here;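 total fluorescence in place of polarization; lower means less elongation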
* = called active by the depositor; . = not tested or not shown; & = joins results of further samples. Compounds as they come; overall some 2% were active at least once.

smiles	Polio RdRp inh	Polio RdRp inh intensity	MbtI inh	MenB inh
CC(=O)N1N=C(c2cc(C3CC3)nc3ccccc23)OC1c1ccc2c(c1)OCO2 (stereo unspecified)	100	102	77	3
CSc1nc(N)c(C#N)s1	105	113	.	-10
O=C=NC12CC3CC(CC(C3)C1)C2	103	108	-8	11
Cc1cc(C(=O)NN2C3CSC2CS3)no1	99	99	-4	75*
Cc1ccccc1OCC(=O)OCC(=O)NC1CCCCC1	100	108	-4	-15
O=C1CCCN1CC#CCN1CCCC1	99	104	-6	-13
O=S(=O)(c1cc(C(F)(F)F)ccc1Cl)N1CCN(Cn2c(CO)nc3ccccc32)CC1	104	108	2	-18
O=C(N/C(=C\c1ccc(-c2ccc(Cl)cc2Cl)o1)C(=O)N1CCCC1)c1ccccc1	108	111	.	-12
COc1ccc(CC(=O)O)c(OC)c1	100	105	-3	3
CCCN(CC1CC1)C(=O)CSc1n[nH]c(=O)n1CC	102	104	3	10
CC(CC(=O)O)C(=O)c1ccc(Cl)cc1 (stereo unspecified)	103	96	-14	.
Cc1nn2c(c1-c1ccc(Cl)cc1)N=C(c1ccco1)CC2c1ccccc1 (stereo unspecified)	101	101	-2	-4
O=C1NC(c2cccc(F)c2)=N/C1=C\C=C\c1ccccc1	104	104	-11	-42
N#Cc1ccc(OC(=O)c2ccc(-c3cccc(C(F)(F)F)c3)o2)cc1	102	105	39	-1
O=C(CN1CCNCC1)N1CCCCC1	104	109	15	5
NC(=O)CN(c1ccccc1)C1SC(=O)NC1=O (stereo unspecified)	104	98	-14	-20
CCN(CC)C(=O)NCc1noc2ccccc12	104	107	-4	-21
O=C(COC(=O)c1ccc2c(c1)OCO2)NC1C2CC3CC(C2)CC1C3 (stereo unspecified)	102	111	-6	-21
CSc1ccc(CCNC(=O)c2csc3c2CCCC3)cc1	103	108	-16	-14
COc1ccc(-n2nc(C(=O)NCc3cc(OC)ccc3OC)c3c4ccccc4n(C)c3c2=O)cc1	101	103	27	-4

Following part:
smiles	Polio RdRp inh	Polio RdRp inh intensity	MbtI inh	MenB inh
O=S1(=O)NC(=NCc2ccco2)c2ccccc21	100	107	.	-15
COCCCNc1nc2ccc(C(=O)c3ccccc3)cc2n2cnnc12	101	104	17	-10
Cc1ccc(-c2cc(Cc3cccnc3)c(=O)[nH]n2)cc1	101	100	4	6
Cc1cc(C(=O)OCc2ccccc2)c(C)o1	104	106	-2	.
CCCOc1c(-c2ccc3ccccc3n2)cnc2ccccc12	100	109	.	-42
O=C(NCc1ccccc1)c1ccc(CN2CCC(Cc3ccccc3)CC2)cc1	104	108	-14	-18
C/C(=N\Nc1ccccc1)C1Cc2ccccc2C(=O)O1 (stereo unspecified)	.	.	54	-20
Nc1ncnc2c1ncn2C1C=CC(CO)O1 (stereo unspecified)	105	109	.	-8
CCc1cccc(NC(=O)CCCN2C(=O)COc3ccc(C)cc32)c1	100	103	4	-8
CCC1Nc2ccccc2NC1=O (stereo unspecified)	106	103	.	-8
O=S(=O)(CCn1cccc1)CCn1cccc1	101	100	-1	8
Cn1cc(NC(=O)NCCN2CCCC2)c2ccccc2c1=O	100	104	118	14
O=C(Cn1nnc2ccccc21)OCC(=O)c1ccc(Cl)cc1	102	102	-6	-21
CS(=O)(=NC(=O)Nc1ccccc1)c1ccccc1 (stereo unspecified)	105	115	-9	-15
CC(NC(=O)c1cccc(S(=O)(=O)N(C)C)c1)C1CC2CCC1C2 (stereo unspecified)	103	108	-18	.
O=C(CSc1nnc(-c2ccc(Cl)cc2)n1Cc1ccccc1)NC(=O)NCc1ccco1	98	100	11	-26
COc1ccc(CCNC(=O)C(Cc2ccccc2)n2cccc2)cc1OC (stereo unspecified)	102	106	-5	-92
CCCc1cc(=O)[nH]c(SCC(=O)N(C)c2ccccc2)n1	100	102	25	-13
COC(=O)N/N=C/c1cn(CCOc2ccc(OC)cc2)c2ccccc12	105	102	8	-23
CN1C(=O)/C(=N\N2C(=O)CSC2=S)c2ccccc21	100	101	9	-161

(listing goes on)
smiles	Polio RdRp inh	Polio RdRp inh intensity	MbtI inh	MenB inh
COCCn1nnnc1C(c1ccc2ncccc2c1)N1CCc2ccccc21 (stereo unspecified)	100	101	-1	-4
O=C(NCc1ccco1)c1ccc(-n2nncc2-c2ccccc2)cc1	103	97	17	-5
CC(Sc1nnc(-c2ccncc2)n1N)C(=O)c1ccc(F)c(F)c1 (stereo unspecified)	100	97	42	4
Cc1ccc2oc(=O)c3cnn(CC(=O)n4c(C)cc5ccccc54)c3c2c1	99	97	-8	-3
CC1CCN(C(=O)c2ccc3nc(SCc4ccc(F)cc4)n(C)c3c2)CC1	102	99	3	-1
COC(=O)c1cccc(NC(=O)C2=NNC(=O)CC2)c1	101	110	-8	14
O=C(Cc1ccccc1)Nc1cccc(-c2ccc(N3CCCC3)nn2)c1	104	104	13	1
N#Cc1ccc(NC(=O)CCC(=O)O)cc1	102	102	1	20
COC(=O)C1=C(C)NC(=S)NC1/C=C/c1ccccc1 (stereo unspecified)	99	103	4	0
CCc1ccc(CN2CCC(O)CC2)cc1	99	104	-11	36*
COc1ccc(C2N(C(=O)c3ccccc3)CCCN2S(=O)(=O)c2ccc(C)cc2)cc1 (stereo unspecified)	104	107	-10	-32
O=S(=O)(NCCN1CCOCC1)c1ccc(Cc2ccc(S(=O)(=O)NCCN3CCOCC3)cc2)cc1	104	102	-19	-25
COC(=O)c1ccc(C(=O)NN)cc1	102	109	-10	-12
O=S(=O)(CCc1nc2ccccc2o1)c1ccc2ccccc2c1	103	103	-2	3
CCOC(=O)Cn1c(=O)c(C(N)=S)cn(C(C)C)c1=O	106	107	-6	-5
CCOc1ccc(CN(C)C(=O)c2cc(S(=O)(=O)N3CCOCC3)ccc2C)cc1	101	104	6	-15
NCCC(Cc1ccccc1)c1ccc2c(c1)OCO2 (stereo unspecified)	106	109	.	-4
Nc1nc2ccccc2n1CCCOc1ccc(F)cc1	102	102	-4	-5
CC(=O)NC(C)C(=O)Nc1cccc(C)c1C (stereo unspecified)	105	102	-3	5
N#Cc1ccc(C2Oc3ccccc3C3CC(c4ccc5c(c4)OCCO5)=NN32)cc1 (stereo unspecified)	104	108	152	-16

(listing goes on)
smiles	Polio RdRp inh	Polio RdRp inh intensity	MbtI inh	MenB inh
c1ccc(CCNCc2cn[nH]c2-c2cccs2)cc1	102	99	-2	8
O=S(=O)(Nc1ccc2c(c1)OCCO2)c1csc(-c2cc(C(F)(F)F)on2)c1	106	109	-14	-18
COc1cc(OC)cc(C(=O)OCC(=O)c2ccc(O)cc2O)c1	101	105	-2	5
Cc1cc2c(cc1S(=O)(=O)N(C)Cc1ccccc1)OCCN2C	101	107	-2	-11
O=c1c2ccccc2nc2sc3ccccc3n12	100	102	-25	-31
CC1=C(C)C(=O)C(NCc2ccccn2)=CC1=O	66*	71*	8	-2
C=CCSc1nnc(-c2c[nH]c3ccccc23)n1CC	100	107	3	7
O=C(O)CCS(=O)(=O)c1ccccc1	103	103	0	.
CSc1ncccc1C(=O)Nc1ccccc1C	98	102	-6	0
Clc1ccc(Oc2nc3ccccc3[nH]2)c(Cl)c1	100	102	-16	-28
COc1ccc(C(N)=O)c(O)c1	103	91	107	-23
COC(=O)C1=NNC2C(=O)N(C3CCCCC3)C(=O)C12 (stereo unspecified)	101	102	-9	7
C=CCN1C(=O)/C(=C\c2ccccc2F)S/C1=N\c1nnc(C)s1	104	101	.	-17
Cc1ccc2cc(CN(C(=O)c3cnccn3)C3CCCCC3)c(=O)[nH]c2c1	103	102	4	-43
c1ccc(CN2CCCN(Cc3ccccc3)C2c2ccncc2)cc1	102	95	.	4
CCCn1c2ccc(F)cc2c2nc3n(c(=O)c21)CCS3	101	100	90	16
Cc1cccc2c3c4n(c12)CC1COC4(CCC3)O1 (stereo unspecified)	103	103	-9	-9
COc1ccc(C2CCCCCN2C(=O)Cn2nc(C(N)=O)c3ccccc3c2=O)cc1 (stereo unspecified)	103	108	0	-19
COC(=O)c1nnn(-c2nonc2N)c1CN1C(=O)c2ccccc2C1=O	101	105	-5	-20
O=C(c1ccc2c(c1)CCN2S(=O)(=O)c1ccccc1)N1CCOCC1	103	103	-2	-10

Whole records as entered above.
`Cc1cc2c(cc1S(=O)(=O)N(C)Cc1ccccc1)OCCN2C` is listed with Polio RdRp inh: 101; Polio RdRp inh intensity: 107; MbtI inh: -2; MenB inh: -11
`COc1ccc(C2CCCCCN2C(=O)Cn2nc(C(N)=O)c3ccccc3c2=O)cc1` (stereo unspecified) is listed with Polio RdRp inh: 103; Polio RdRp inh intensity: 108; MbtI inh: 0; MenB inh: -19

Other compounds follow:
Under each structure: Polio RdRp inh, Polio RdRp inh intensity, MbtI inh, MenB inh
N#CC(c1ccco1)N1CCN(C(C#N)c2ccco2)CC1 (stereo unspecified)
 : 103, 106, 6, -11
O=C1C2CC=CCC2C(=O)N1Cc1nnc(-c2ccc(Cl)cc2)o1 (stereo unspecified)
 : 99, 114, -25, -3
CN1CCN(C(=O)COc2cc(=O)n(C)c3ccccc23)CC1
 : 101, 96, -7, -17
O=c1[nH]ncc(N2CCCC2)c1Br
 : 95, 94, 4, -13
COC(=O)c1c(NC(=O)c2cc3ccccc3o2)sc2c1CCCC2
 : 99, 100, 7, 10
C=CCNC(=O)C1=CC(c2ccc(F)cc2)=NS(=O)(=O)N1C
 : 102, 104, 14, -8
O=P1(N2CCN(c3ccc(F)c(Cl)c3)CC2)COc2ccccc2OC1
 : 103, 101, -5, -24
N/C(CN1CCSCC1)=N\OC(=O)c1ccccc1F
 : 102, 100, -10, 1
COc1ccccc1C(=O)Nc1ccc(-c2cn3ccccc3n2)cc1
 : 98, 91, ., -37
COc1ccc(-c2noc(-c3ccccc3C(=O)N3CCCCC3)n2)cc1OC
 : 100, 103, -22, -21

Going on with the list.
Under each structure: Polio RdRp inh, Polio RdRp inh intensity, MbtI inh, MenB inh
CCc1nnc2c3cnn(-c4ccccc4)c3nc(C)n12
 : 103, 112, 23, -8
N#C[C@@H]1O[C@H](COC(=O)c2ccccc2)[C@@H](OC(=O)c2ccccc2)[C@H]1OC(=O)c1ccccc1
 : 108, 109, -7, -14
COC(=O)c1c(C)nn(-c2ccc(OC(F)(F)F)cc2)c1-c1snnc1C
 : 102, 103, -11, -12
COc1ccc(C(=O)Cn2ccnc2C(=O)NCCc2ccc(Cl)cc2)cc1
 : 104, 108, -6, -25
O=c1[nH]c2ccccc2c(O)c1-c1nc2ccccc2s1
 : 102, 96, -169, .
O=C(COc1ccccc1Cl)c1ccc[nH]1
 : 135, 185, -5, -10
Cc1c2c(=O)[nH]ncc2c(-c2ccccc2)n1CCSCc1c(F)cccc1Cl
 : 103, 97, 3, 4
Cn1c(=S)[nH]c2ccc(Br)cc2c1=O
 : 102, 98, 1, -30
CN(C)c1ccc(N)cc1C(=O)O
 : 100, 103, 2, 21
N=C1C(c2ccccc2)=C(O)CN1NC(=O)c1ccccc1
 : 100, 103, -9, -61

(list continues)
Under each structure: Polio RdRp inh, Polio RdRp inh intensity, MbtI inh, MenB inh
CCOC(=O)c1c(C)n(C(C)C)c2ccc(OC(=O)c3ccccc3)cc12
 : 105, 106, -12, -19
Cc1c(NC(=O)C2Cc3ccccc3CN2S(=O)(=O)c2ccccc2F)c(=O)n(-c2ccccc2)n1C (stereo unspecified)
 : 104, 99, 2, -7
OCCNCC1CC2C=CC1C2 (stereo unspecified)
 : 102, 103, 8, 23
CCOC(=O)C1=C(CC)Nc2ccccc2N=C1NC(=O)C1CC(=O)N(CCc2ccccc2)C1 (stereo unspecified)
 : 110, 119, 0, -16
CC(C)CC(=O)N[C@H](C(=O)N[C@H](C(=O)N[C@@H](CC(C)C)[C@@H](O)CC(=O)N[C@@H](C)C(=O)N[C@@H](CC(C)C)[C@@H](O)CC(=O)O)C(C)C)C(C)C
 : 98&100, 102&99, 7, -9
Cc1ccc(-n2c(C)cc(C(=O)CSc3nc(N)cc(N)n3)c2C)cc1C
 : 104, 111, -3, -10
c1ccc2c(c1)OCCCO2
 : 108, 103, -27, -15
NC(=O)c1nc(Cl)c(Cl)c(Cl)c1Cl
 : 102, 102, 9, -14
Cc1cc2nc(NCc3ccccn3)c3ccccc3n2n1
 : 102, 94, 105, 10
CCOC(=O)c1ccc(NC(=O)c2ccc(S(=O)(=O)N3CCOCC3)cc2)s1
 : 107, 111, -3, -13

(listing goes on)
Under each structure: Polio RdRp inh, Polio RdRp inh intensity, MbtI inh, MenB inh
CCCCc1nc2n[nH]c(N)c2c2c1CCC2
 : 102, 106, 2, 0
Cc1nn2c(c1-c1cccc(Cl)c1)NCN(Cc1ccc(Cl)cc1)C2
 : 103, 108, -6, -19
CNc1ccccc1-c1nc2ccccc2o1
 : 104, 104, ., -29
CC(=O)N1CC(C)Oc2ccc(S(=O)(=O)N(CC(C)C)CC(C)C)cc21 (stereo unspecified)
 : 102, 99, -10, -43
Cc1ccc2nsnc2c1NC(=O)C(C)(C)C
 : 103, 99, 8, -28
COc1cccc(Cn2c(SCc3ccc(C(=O)NCc4ccccn4)cc3)nc3ccncc32)c1
 : 105, 106, -6, -42
O=C(O)c1ccn(C(F)F)n1
 : 99, 101, 18, -6

An excerpt from above with just MbtI inh and MenB inh:
canonical_smiles	MbtI inh	MenB inh
COC(=O)c1cccc(NC(=O)C2=NNC(=O)CC2)c1	-8	14
O=C(Cc1ccccc1)Nc1cccc(-c2ccc(N3CCCC3)nn2)c1	13	1
